# Compound activity as filed in PubChem.
# Calb biofilm kill = mixture kills Candida albicans biofilm cells. C. albicans biofilm persisters + clotrimazole, fluorescence viability; primary screen in compound mixtures of four per well. inhibition, % at 7.6 µM. AID 1242. 0.02% of 120,000 active;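 active = inhibition above 30.3% in the primary screen of four-compound pools, then above 30% when the compound was retested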;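 also: compounds exposed to preformed 24 h biofilms for 48 h; the number belongs to the whole pool; some results filed as inactive read as strong as hits; inactives centre near 12; 0% = biofilm with clotrimazole alone and 100% = kill control; retested singly at about 60 µM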
#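 System: C. albicans CAF4-2 wild-type biofilms; Medium: RPMI/MOPS medium, pH 7.0; Reagent: Clotrimazole, 50 µg/mL; Times: biofilm formation 24 h, compound exposure 48 h, 37 °C; Detection: 2-h Alamar Blue fluorescence, 535/590 nm excitation/emission; Evaluation: percent inhibition of biofilm viability.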
# The depositor's hits bear a star; & = joins results of further samples. This is a subset; rates above refer to the full screens.
SMILES,Calb biofilm kill
Cc1ccc(C(=O)CSc2nc(-c3ccccc3)cc(=O)[nH]2)cc1,50
Cc1onc(-c2c(F)cccc2Cl)c1-c1nnc(-c2ccc(C(F)(F)F)cc2)o1,0
CC1=CC(C)(C)n2c(O)c(N=NC(N)=S)c3c(C)c(C)cc1c32,15
COc1ccc2nc(N3C(=O)CNC3=S)sc2c1,7
Cc1ccc(NC(=S)N(CCCN2CCOCC2)Cc2ccco2)cc1Cl,9
Cc1ccc(NC(=O)N2CCCC2C(=O)Nc2ccc(-n3cnnn3)c(C)c2)cc1 (stereo not drawn),12
Cc1ccc2[nH]c(=O)c(CN(Cc3cccs3)S(=O)(=O)c3ccc4c(c3)OCCO4)cc2c1,12
CC(=O)C1=C(C)NC(=O)CC1c1ccccc1Cl (stereo not drawn),15
NC(=O)Nc1ccc(C(=O)OCC(=O)NC2CCCCC2)cc1,5
O=C(/C=C/c1ccc(F)cc1)NC(=S)NNC(=O)c1cccnc1,14
COc1ccc(CN(Cc2cccn2C)S(=O)(=O)c2ccc(F)cc2)cc1,8
COc1cccc(NC(=O)Nc2nnc(CC(=O)NCc3ccccc3)s2)c1,21

# Given with each value named: four of the compounds above.
molecule: Cc1ccc(NC(=O)N2CCCC2C(=O)Nc2ccc(-n3cnnn3)c(C)c2)cc1 (stereo not drawn)
  Calb biofilm kill: 12

molecule: O=C(/C=C/c1ccc(F)cc1)NC(=S)NNC(=O)c1cccnc1
  Calb biofilm kill: 14

molecule: Cc1ccc(NC(=S)N(CCCN2CCOCC2)Cc2ccco2)cc1Cl
  Calb biofilm kill: 9

molecule: COc1cccc(NC(=O)Nc2nnc(CC(=O)NCc3ccccc3)s2)c1
  Calb biofilm kill: 21

# Next section.
SMILES,Calb biofilm kill
O=C(CCCCCn1c(=S)[nH]c2ccc(N3CCOCC3)cc2c1=O)NCCc1ccccc1,12
O=C(O)/C=C/C(=O)NCCC(c1ccccc1)c1ccccc1,3
CC(C)(C)OC(=O)N/N=C/c1ccc(N2CCOCC2)s1,14
C/C(=N\NC(=O)C1(C)CC1(Br)Br)c1ccc(NC(=O)C2CCC2)cc1 (stereo not drawn),8
O=C(CCc1ccccc1)NCc1ccccc1,9
C/C(=N\NC(=O)c1nn(C)cc1Br)c1ccc(NC(=O)c2ccncc2)cc1,14
O=C(/C=C/c1ccc2c(c1)OCO2)Nc1nc2ccccc2s1,9
COc1ccccc1NC(=O)c1ccc(NC(=O)COC(=O)C2(C)CC2(Cl)Cl)cc1 (stereo not drawn),11
C[C@@H](C(=O)Nc1ccc2ccccc2c1)[C@H]1C[C@]1(C)[C@H](NS(=O)(=O)c1ccc(-c2ccccc2)cc1)c1ccccc1,5
CCCCOc1nc(N2CCOCC2)nc(C)c1[N+](=O)[O-],22
Clc1ccc(OCc2cn3ccccc3n2)c2ncccc12,24
C=CCSc1nnc(C)c(/C=C/Nc2ccc(Cl)cc2)n1,-31

# Structures above with a Cl atom:
SMILES,Calb biofilm kill
Cc1onc(-c2c(F)cccc2Cl)c1-c1nnc(-c2ccc(C(F)(F)F)cc2)o1,0
Cc1ccc(NC(=S)N(CCCN2CCOCC2)Cc2ccco2)cc1Cl,9
CC(=O)C1=C(C)NC(=O)CC1c1ccccc1Cl (stereo not drawn),15
COc1ccccc1NC(=O)c1ccc(NC(=O)COC(=O)C2(C)CC2(Cl)Cl)cc1 (stereo not drawn),11
Clc1ccc(OCc2cn3ccccc3n2)c2ncccc12,24
C=CCSc1nnc(C)c(/C=C/Nc2ccc(Cl)cc2)n1,-31

# (next part)
SMILES,Calb biofilm kill
CCn1c(SCC(=O)Nc2cc(C(C)(C)C)nn2-c2ccccc2)nnc1-c1cccs1,-7
O=C(OCC(=O)N1CCOCC1)c1ccc(N2CCOCC2)c([N+](=O)[O-])c1,4
O=C(CSc1nc2c(cnn2-c2ccc(F)cc2)c(=O)[nH]1)N1N=C(c2cccs2)CC1c1ccc(F)cc1 (stereo not drawn),1
Cc1cccc(NC(=S)N(Cc2ccc(Br)cc2)Cc2ccc(C(=O)O)cc2)c1,9
COc1ccc(C[C@H]2CN3C(=NC[C@H]3Cc3ccccc3)N2CCNC(=O)CCC2CCCCC2)cc1,14
O=C(NN=C1CCCCCC1)c1cn(-c2ccccc2)nc1-c1ccccc1,8
COCCn1c(SCc2cc(C(C)=O)ccc2OC)nc2cc(Cl)ccc2c1=O,9
CS(=O)(=O)c1ccc2nc(NC(=O)C3=NN(c4ccccc4)C(=O)CC3)sc2c1,32
COc1ccc(-n2cnnc2SCC(=O)Nc2cccc(S(=O)(=O)N3CCCCC3)c2)cc1,0
COc1ccc(OC)c(-n2c(-c3ccn[nH]3)n[nH]c2=S)c1,21
COc1ccc2c(C)cc(SC3CCOC3=O)nc2c1 (stereo not drawn),13
COc1ccc(OC)c(NC(=O)c2ccccc2NC(=O)c2ccco2)c1,26
O=C(NN1C(=O)C2CC=C(Cl)CC2C1=O)c1ccncc1 (stereo not drawn),-5
CCOC(=O)c1c(NC(=O)N/N=C/c2ccccc2OCC)sc(C(C)=O)c1C,9
COC(Cn1c(-c2cccc(S(=O)(=O)N(C)C)c2)n[nH]c1=S)OC,11
O=C(CO/N=C/c1ccccc1OC(F)F)NCc1ccco1,15
CCOC(=O)C1CCCN(Cc2cn(C)nc2-c2ccc3c(c2)OCCO3)C1 (stereo not drawn),30
CCOc1ccc(NC(=S)C(C#N)=C2N(C)c3ccccc3N2C)cc1,5
O=C(COC(=O)CCc1ccc(S(=O)(=O)N2CCOCC2)cc1)NCc1ccc(Cl)cc1,17
CC1CCCC(NC(=O)CNC(=S)N(Cc2ccccc2)Cc2cccs2)C1C (stereo not drawn),1
O=c1c(F)cn(C2CCCO2)c(=O)n1Cc1ccc(Cl)cc1 (stereo not drawn),12
COC(=O)c1c(NC(=O)C2CCCCC2C(=O)O)sc2c1CCCCC2 (stereo not drawn),-1
COc1ccc(OC2OC3COC(C)(C)OC3C(O)C2NC(C)=O)cc1 (stereo not drawn),5
CN(C)CC(c1ccccc1)c1ccccc1,19
COc1cccc(N=C2CC(C)(C)CC(=O)/C2=C(/O)c2ccccc2)c1,2
CCOC(=O)c1c(C)[nH]c(C(=O)CN2C(=O)NC(C)(c3ccc(C)cc3)C2=O)c1C (stereo not drawn),7
CC(C)[C@H](CO)Nc1nc(NCc2ccc(S(N)(=O)=O)cc2)c2ncn(C(C)C)c2n1,13
CCCCSc1nnc(CCC)n1N,10
CCOc1cc(C(N)=O)cc(Br)c1OCc1ccccc1,29
O=c1ccc(-c2n[nH]c(=S)n2-c2ccc(F)c(Cl)c2)n[nH]1,11
Cc1cccc(C(=O)c2ccccc2C(=O)O)c1,18
O=C(CSc1nnc(NC(=O)Cc2ccccc2)s1)NCc1ccco1,14
CCn1c(NC)cc(=O)n(C)c1=O,10
Cc1cc(NS(=O)(=O)c2ccc3c(c2)OCCO3)no1,20
CCCCN1C(N)=NC[C@H]1Cc1ccc(O)cc1,19
Cc1[nH]c2ccccc2c1/C=N/NC(=O)CNC(=O)c1ccccc1,20
COc1ccc(NC(=O)/C=C/c2ccc(F)cc2)cn1,11
Cc1ccc(S(C)(=O)=N/C=C2\C(=O)c3sccc3N(C)S2(=O)=O)cc1 (stereo not drawn),22
C/C=C/C=C/C(=O)N1CC2(CC(c3cccc(NC(=O)/C=C/C)c3)=NO2)C[C@@H]1C(N)=O (stereo partly drawn),17
O=C(Cc1ccccc1F)NCC(c1ccco1)N1CCCCC1 (stereo not drawn),6
COc1ccc(C2NC(=O)N(C)C3=C2C(=O)CC(C)(C)C3)cc1OC (stereo not drawn),13
Cn1cccc1/C=C1\SC(=S)N(NC(=O)c2cccc(Cl)c2)C1=O,13
O=C(NC(=S)Nc1ccccn1)c1ccccc1,26
Cc1nc2ccccc2c(=O)n1/N=C/c1ccc([N+](=O)[O-])o1,23
COc1ccc(NC(=O)C(=O)NCCCn2ccnc2)cc1,24
CCCCC(=O)Nc1ccc(C(=O)NNC(=O)CCCOc2ccc(Cl)cc2Cl)cc1,17
Cc1cccc(-n2ncc3c(N(C)C4CCCCC4)ncnc32)c1,10
COc1ccc(N2CCN(C(CNC(=O)C(=O)NCc3ccncc3)c3ccco3)CC2)cc1 (stereo not drawn),4
COc1ccc(CCNCC(=O)Nc2ccccc2C(F)(F)F)cc1,16
O=C(Nc1nc(-c2ccc(Cl)cc2)cs1)C1CCCO1 (stereo not drawn),6
O=C1NCCN(C(=O)CCc2nnc(-c3ccsc3)o2)C1c1ccc(F)cc1 (stereo not drawn),14
CC(C)CC(=O)NC(NC(=O)CC(C)C)c1cccc([N+](=O)[O-])c1,12
COc1ccc(-c2c(C(C)=O)c(C)nc3sc4c(=O)[nH]nnc4c23)cc1,16
CC(C)c1cccc(C(C)C)c1NC(=O)c1ccccc1,-2
O=C(NC1CCS(=O)(=O)C1)c1cccnc1 (stereo not drawn),4
CNCCCOc1cccc(Oc2ccccc2)c1,8
O=C(c1cccnc1)N(c1cc2sc(=O)oc2c2ccccc12)S(=O)(=O)c1ccccc1,17
CC(NC(=S)Nc1ccccc1C(F)(F)F)C1CC2CCC1C2 (stereo not drawn),8
COc1ccc(C(=O)/C=C/Nc2c(C)n(C)n(-c3ccccc3)c2=O)c(OC)c1,11
Cc1cccn2c(=O)c(C=O)c(N3CCC4(CC3)OCCO4)nc12,28
# Following part:
SMILES,Calb biofilm kill
COC(=O)C(C)N1CCC(=O)c2ccccc2S1(=O)=O (stereo not drawn),17
COC(=O)C1=C(C)NC(=O)NC1c1ccc(-c2ccc(F)cc2)o1 (stereo not drawn),7
CN(C)S(=O)(=O)Nc1cccc(Br)c1,26&11
O=C(O)Cn1c2c(c3ccccc31)CCCC2,8
O=c1[nH]c2ccc([N+](=O)[O-])cc2nc1/C=C(\O)c1ccccc1,18
Cn1c(-c2sc3cc(C(F)(F)F)cnc3c2-c2cccs2)n[nH]c1=S,14
Cn1c(O)c(C=Nc2ccc(Br)cc2)sc1=O,1
CCOC(=O)CN1C(=N)N(c2nc(NC(C)C)nc(OC)n2)CC1=O,20
CN(C)c1ccc(-c2nnn(CC(=O)Nc3ccc4c(c3)OCCO4)n2)cc1,5
O=C(/C=C/c1ccco1)N1CCN(C/C=C/c2ccccc2)CC1,8
O=C(Cn1cc(C(F)(F)F)ccc1=O)NCCc1ccc(Cl)cc1Cl,8
CCN(CC)S(=O)(=O)c1cccc(N=NC2=C(O)CCCC2=O)c1,15

# Molecules from the list above that contain a tert-butyl group:
SMILES,Calb biofilm kill
CC(C)(C)OC(=O)N/N=C/c1ccc(N2CCOCC2)s1,14
CCn1c(SCC(=O)Nc2cc(C(C)(C)C)nn2-c2ccccc2)nnc1-c1cccs1,-7

# The list continues:
SMILES,Calb biofilm kill
COc1ccc(CNC(=O)c2ccc3c(=O)n(CCCN4CCCC4=O)c(=S)[nH]c3c2)cc1,13
NC(N)=Nc1nc(-c2ccccc2)c2cc(F)ccc2n1,12
N[C@@H](Cc1c[nH]c2ccccc12)C(=O)O,17
CC(C)Oc1cccc(C(=O)C2CCCN(C(=O)c3ccoc3)C2)c1 (stereo not drawn),25
Cc1cc(Sc2nc(N(C)C)nc(N(C)C)n2)nc(Cl)n1,7
CCN(CC)S(=O)(=O)c1ccc(N2CCOCC2)c(NC(=O)COc2ccc(C#N)cc2)c1,23
CCN(CC)S(=O)(=O)c1cccc(C(=O)NN2Cc3ccccc3C2=N)c1,17
Cc1cc(O)ccc1C1(c2ccc(O)cc2C)OC(=O)c2ccccc21,9
C=CC[N+]1(CC#Cc2ccccc2)CCCC1,15
COCCCNC(=S)N1CCN(c2nc3ccccc3s2)CC1,3
CCN(C(=O)CSc1nc2ccccc2c(=O)n1-c1cccc(C)c1)C1CCS(=O)(=O)C1 (stereo not drawn),8
Cc1cc(C(=O)NNS(=O)(=O)c2ccc(F)cc2)nn1C(C)(C)C,17
CCOc1cccc2cc(C(N)=O)c(=N)oc12,15
Cc1ccc(NC(=O)c2ccccc2-c2cc(C)no2)cc1,-2
C=CCOC(=O)C1=C(C)OC(N)=C(C#N)C1c1ccco1 (stereo not drawn),25
COc1ccc(OCC#CCN2CC(C)OC(C)C2)cc1 (stereo not drawn),12
O=C(C1=C[C@@H](C2CCCCC2)C[C@@H](OCc2ccc(CO)cc2)O1)N1CCN(Cc2ccccc2)CC1,14
Cc1nc2scc(-c3ccccc3)c2c(=O)n1N=C1C=CC(=O)C=C1,-17
CC1=CC(C)(C)N(C(=O)CN2C(=O)c3ccccc3C2=O)c2ccc(C)cc21,6
O=[N+]([O-])c1ccc(S(=O)(=O)CC2CSc3nc4ccccc4n32)cc1 (stereo not drawn),10
CCOc1cccc2sc(NN)nc12,13
CC(C)N1CCC(N2CCN(Cc3cccc4nonc34)CC2CCO)CC1 (stereo not drawn),9
O=C(NNC(=O)c1csc(-c2cccnc2)n1)Nc1ccc(Cl)cc1,15
Cc1ccccc1Nc1nc(N)nc(CSc2nnc3ccccn23)n1,2
O=C(NC1CCN(Cc2ccccc2)CC1)c1cc(Br)c(Br)[nH]1,11
CCOc1ccc(-c2nc(N)ncc2-c2ccc(OC)cc2)c(O)c1,16
COc1cc(Br)cc(C2C3=C(CCCC3=O)N(c3ccc(F)cc3)C3=C2C(=O)CCC3)c1O,12
Cc1ccccc1NC(=O)c1ccc(Nc2c([N+](=O)[O-])cc([N+](=O)[O-])c3ccccc23)cc1,15
COc1c(/C=N/Nc2ccc(C(=O)O)cc2)c(CCN(C)C(C)=O)cc2c1OCO2,26
Cc1cccc(N(CC(=O)N2CCN(c3ccc(F)cc3)CC2)S(C)(=O)=O)c1C,7
CCN1/C(=C/C=C/c2oc3ccc(-c4ccccc4)cc3[n+]2CC)Oc2ccc(-c3ccccc3)cc21,-5
NS(=O)(=O)c1ccc(CNC(=S)NC2CC2)cc1,10
O=C(O)c1ccc(Cl)c(S(=O)(=O)Nc2ccc3[nH]c(=O)[nH]c3c2)c1,22
CCOC(=O)C1(CCc2ccccc2)CCN(C(=O)CCn2cnnn2)CC1,7
